Bioassay records: PubChem, ICCB-Longwood Screening Facility, Harvard Medical School
Sa growth 42C – S. aureus growth inhibition at 42 and 30 °C, primary screen, LtaS inhibitor project, RN4220, two temperatures | OD600, 20 h, 42 °C; stronger effect = lower value | relative growth, % (test concentration not listed) | hit rate 0.53% among 170,000;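 active = growth at 42 °C up to 50% and 20 or more points under that at 30 °C, or under 10% at both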;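 note: 300 nL library stock went into each well; scaled to the means of positive and negative controls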
GIV-Gai inh – inhibitors of GIV peptide binding to Galpha-i3, primary screen, biochemical, fluorescence polarization, FITC-GIV GBA peptide, rat Galphai3 | Guanine nucleotide-binding protein G(i) subunit alpha-3 (Rattus norvegicus), P08753 | 90 min; stronger effect = lower value; scaled: aluminum fluoride 0%, vehicle 100% | hit rate 0.42% among 210,000 | percent of control (FP), % (no concentration beside the values) | AID 1224905, 2016;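 active = replicate mean at 85% of control or lower, very high polarization wells dropped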;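 note: wells of about 15 µL received 100 nL stock; the first replicate is given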
Target sequence (P08753 whole entry, looked up): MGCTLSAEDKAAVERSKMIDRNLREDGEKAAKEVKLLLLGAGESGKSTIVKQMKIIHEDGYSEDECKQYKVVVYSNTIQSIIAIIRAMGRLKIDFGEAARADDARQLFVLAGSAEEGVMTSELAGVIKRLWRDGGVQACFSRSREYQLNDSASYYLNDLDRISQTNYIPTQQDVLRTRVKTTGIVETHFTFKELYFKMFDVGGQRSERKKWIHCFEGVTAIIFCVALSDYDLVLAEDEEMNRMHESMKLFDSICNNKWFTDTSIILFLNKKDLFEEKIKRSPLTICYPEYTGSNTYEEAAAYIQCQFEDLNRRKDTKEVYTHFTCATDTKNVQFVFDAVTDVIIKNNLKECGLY
HCMV UL50-53 inh – inhibitors of HCMV UL50-UL53 interaction, biochemical, HTRF; AID 1918969, 2023; normalized percent inhibition; hit rate 0.15% among 190,000; inhibition, % (concentration not given with the values); HCMV UL50-UL53 nuclear egress complex (human cytomegalovirus);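 active = both replicates at 50% or more, plus weaker picks with an unusually low signal ratio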;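 note: stock transfer was 100 nL into about 20 µL; 0% = negative control wells and 100% = wells with untagged competitor protein; inactives centre near -12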
Sa growth 42C second temp – also measured in Sa growth 42C; calls as there; relative growth, %; measured here: growth at 30 °C;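 optical density after 20 h as mean of two plates; 100% = untreated growth and lower means inhibition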
* hit, by the source's call; . = no result given; & = joins results of further samples.

SMILES	Sa growth 42C	Sa growth 42C second temp	GIV-Gai inh	HCMV UL50-53 inh
OCCNCC(O)Cn1ccc2ccccc21 (stereo unspecified)	105	83	102	1
O=C(NCc1cccnc1)c1ccc(S(=O)(=O)N2CCCCC2)cc1	76	88	101	-29
CCOC1=NC(C(F)(F)F)(C(F)(F)F)N=C2Sc3ccccc3N12	92	92	.	-4
COc1ccc(-c2noc(N(c3cccc(Cl)c3)c3nc(-c4ccc(OC)c(OC)c4)no3)n2)cc1OC	111	107	112	26
COc1ccccc1-c1nc(SC)n[nH]1	97	96	101	-23
CCC(Oc1ccccc1)C(=O)Nc1ccccc1OCc1cc(=O)n2ccccc2n1 (stereo unspecified)	84	89	102	.
CC(=O)Nc1ccc(S(=O)(=O)NCc2ccc(C(=O)NCc3ccc(Cl)cc3)cc2)cc1	103	79	102	-21
Cc1ccc(N=Cc2cc3ccccc3[nH]c2=O)cc1	90	78	113	.
CCc1sc(C(=O)NN)cc1C	98	100	.	9
CCCCN(C)C(=O)c1ccc(Sc2ccc(Cl)cc2)c(NC(C)=O)c1	88	80	100	.
O=C(CSC1CCCC1)c1ccccc1Cl	82	94	.	15
CCCn1c(SCc2nc(-c3ccc(OC)c(OC)c3)no2)nnc1-c1ccccc1	106	80	107	-10
Cc1oc2c(F)c(F)c(F)c(F)c2c1C#N	96	83	106	-19
COc1ccc(C(CNC(=O)c2ccc(OCc3c(C)noc3C)cc2)N2CCCC2)cc1 (stereo unspecified)	79	86	.	-7
FC(F)(F)c1ccc2nc(SCc3ccc(Br)cc3)[nH]c2c1	6.8*	21*	99	9
COc1ccc(-c2csc(Nc3ccccc3)n2)cc1OC	96	64	98	-13
CN1C/C(=C\c2ccc(N3CCOCC3)cc2)C(=O)/C(=C/c2ccc(N3CCOCC3)cc2)C1	84	87	197	-22
CCn1c(SCCn2c(=S)n(C)c3ccccc32)nc2ccccc21	84	83	.	-7
CCN(CC(=O)Nc1cccc(F)c1)CC(=O)Nc1ccccc1OC	99	96	.	8
CC(C)n1c(=O)c(=O)[nH]c2cc(-c3noc(-c4ccc(Cl)cc4)n3)ccc21	.	.	103	-19
O=C(COc1ccccc1-c1nnc(-c2ccccc2)o1)NCc1cccc(F)c1	.	.	101	4
Cc1onc(-c2ccccc2)c1C(=O)Nc1nnc(N2C(C)CCCC2C)s1 (stereo unspecified)	89	82	106	2
O=C(NCCn1cc(SCc2ccccc2Cl)c2ccccc21)c1cccs1	78	85	104	-17
Cc1cccc(C(CC(=O)N2CCCC2)c2ccccc2)c1O (stereo unspecified)	122	83	103	.
CCc1ccc(NCc2cc3cc4c(cc3n(CC(=O)Nc3ccc(OC)cc3)c2=O)OCO4)cc1	105	92	98	.
COc1cccc(-n2cnnc2SCC(=O)c2ccc(CNC(=O)C(C)(C)C)s2)c1	115	100	.	-2
COc1cccc(CNCCSc2nnnn2C)c1OCc1ccccc1Cl	107	76	103	18
CCc1c(C)sc(NC(=O)C2c3ccccc3Oc3ccccc32)c1C(=O)OC	83	89	100	.
Cc1ccc(C(=O)c2ccccc2C(=O)OCC(=O)N2CCCC2)cc1	107	94	.	-30
COc1cccc(OC)c1C(=O)Nc1ccc(-c2nc3ccccc3s2)c(Cl)c1	.	.	100	18
O=C(NCCS(=O)(=O)N1CCN(c2cccc(Cl)c2)CC1)C(c1ccccc1)c1ccccc1	91	85	105	.
CC1CCN(C(=O)COC(=O)/C=C/c2cccs2)CC1	102	93	.	-78
Cc1cccc(NC(=O)Cc2csc(COc3cccc(C)c3)n2)c1	107	88	104&103	-28&-14
CCOc1ccccc1NC(=O)c1c(NCc2sccc2C)sc2c1CCCCC2	90	81	128	.
COc1ccc(NC(=O)c2ccc3nc(C)c(C)nc3c2)cc1	88	81	.	-47
Cc1sc2ncnc(SCC(=O)Nc3sc(-c4ccccc4)cc3C(N)=O)c2c1C	.	.	101	-16
Cc1ccc(NC(=O)C2CCCN(c3ccc4cc(S(=O)(=O)N5CCCC5)ccc4n3)C2)cc1C (stereo unspecified)	.	.	104	-40
CCc1ccccc1NC(=O)c1sc2nc3n(c(=O)c2c1C)CCC3	103	103	101	4
O=c1[nH]c(CSc2nnc(-c3ccccc3)n2Cc2ccco2)nc2scc(-c3ccccc3)c12	93	69	.	-11
Cn1c(=O)c2c(nc(Oc3ccccc3)n2C)n(C)c1=O	98	86	107	-1

Rewritten with two lines to a compound: part of the list above.
Order of results – Sa growth 42C, Sa growth 42C second temp, GIV-Gai inh, HCMV UL50-53 inh
COc1ccc(-c2csc(Nc3ccccc3)n2)cc1OC
  96, 64, 98, -13
COc1ccc(-c2noc(N(c3cccc(Cl)c3)c3nc(-c4ccc(OC)c(OC)c4)no3)n2)cc1OC
  111, 107, 112, 26
Cc1sc2ncnc(SCC(=O)Nc3sc(-c4ccccc4)cc3C(N)=O)c2c1C
  ., ., 101, -16
CCn1c(SCCn2c(=S)n(C)c3ccccc32)nc2ccccc21
  84, 83, ., -7
COc1cccc(-n2cnnc2SCC(=O)c2ccc(CNC(=O)C(C)(C)C)s2)c1
  115, 100, ., -2

Continued:
SMILES	Sa growth 42C	Sa growth 42C second temp	GIV-Gai inh	HCMV UL50-53 inh
Cc1ccc(CNC(=O)Cn2cc(C(=O)c3ccc(F)cc3)c(=O)c3ccc(C)nc32)cc1	91	98	110	.
COC(=O)c1nnn(-c2ccccc2)c1C(=O)OC	102	98	96	.
O=C1C(=O)N(C2CCN(S(=O)(=O)c3ccccc3)CC2)CCN1Cc1ccc(F)cc1	.	.	101	8
O=C(Nc1ccc2oc(-c3cccnc3)nc2c1)c1cccc(Br)c1	102	91	105	-36
Clc1ncccc1-c1nc2ccccc2n1Cc1ccccc1	.	.	112	-9
O=C1OC(=O)C2C3CCC(O3)C12 (stereo unspecified)	.	.	101	6
CC(O)CN(CC(C)O)c1ncnc2c1sc1nc3c(cc12)COC(C)(C)C3 (stereo unspecified)	100	75	102	-1
O=C(Nc1cccnc1)c1[nH]nc2c1CCc1ccccc1-2	95	61	103	-13
Cc1ccc(CN2CCC(CNC(=O)Nc3ccc4c(c3)OCCO4)C2)cc1 (stereo unspecified)	111	87	106	8
CN(C)S(=O)(=O)c1ccc(NC(=O)Cn2ccsc2=N)cc1	100	90	.	-14
Cc1cc(NC2CCCCC2)nc(NCc2ccccc2)n1	33	0	109	.
COc1ccc(C(=O)n2nc(-c3ccc(Cl)cc3)nc2NCc2ccco2)cc1	86	101	108	1
CCOc1nc(NC(=O)NS(=O)(=O)c2cccc(Cl)c2)nc(-c2ccccc2)n1	81	80	.	-12
Cc1cc(C)cc(CC(C(=O)O)C(C)C(=O)O)c1 (stereo unspecified)	101	86	95	-13
COc1ccc(C2CCCN2CC(O)COc2ccccc2C(C)C)cc1 (stereo unspecified)	67	57	.	-22
O=C1NCC(O)=C1C=NC12CC3CC(CC(C3)C1)C2	103	99	96	-7
CCS(=O)(=O)c1ccc(O)c(NC(=O)COc2ccc(OC)cc2)c1	124	74	104	.
O=C1C=CC(=NOC(=O)c2ccc(Cl)cc2)C=C1	98	87	108	7
COc1cc(Cl)c(C(F)(F)F)cc1NC(C)=O	90	82	100	-21
CCn1c2ccccc2c2cc(CN3CCC(N4CCN(CCO)CC4)CC3)ccc21	98	92	100	-10
CCN(c1ccccc1)S(=O)(=O)c1cc(C(=O)OC)n(C)c1	79	83	100	-24
O=C(Nc1c(C(=O)c2ccc(F)cc2)oc2ccccc12)c1cc(-c2ccccc2)on1	104	86	107	-6
COC(=O)c1c(NC(=O)COc2ccc(Cl)cc2C)sc2c1CCCCC2	104	93	103	-30
O=C(NCc1ccccc1)C1=NS(=O)(=O)c2ccccc2N1	107	78	102	-21
Cc1cccc(NC(=O)C2c3ccccc3C(=O)N3CCc4ccccc4C23)n1 (stereo unspecified)	96	94	105	.
O=c1nc2sc3ccccc3n2c(=O)n1-c1ccccc1	111	101	109	10
Cc1ccc(Cl)cc1N1CCN(C(=O)c2cnc3sccn3c2=O)CC1	.	.	105	0
CCOC(=O)N1CCN(C(=O)C(C)Oc2ccc(Br)cc2)CC1 (stereo unspecified)	102	92	103	-16
Cn1c(=O)c2c(-c3ccccc3)n3c(c2n(C)c1=O)C(c1ccccc1O)Nc1ccccc1-3 (stereo unspecified)	.	.	110	-4
CCN1CCN(CCCNC(=O)Cn2nc(C)n3c(cc4cc(C)ccc43)c2=O)CC1	121	86	96	-35
CC(C)C(=O)Nc1ccc(-c2nc3cc(Cl)ccc3o2)cc1	96	85	.	-14
COC(=O)C1=C(C)NC(=O)C1(NC(=O)c1cc(OC)c(OC)c(OC)c1)C(F)(F)F (stereo unspecified)	84	90	101	2
O=S(=O)(c1cccs1)N1CCCCCC1	107	93	107	.
Cc1oc(-c2ccccc2)nc1CSc1nc2ccccc2n2c(C)nnc12	.	.	112	-13
CC(=O)N[C@@H](Cc1c[nH]c2ccccc12)C(=O)NCc1ccccc1	80	96	.	-14
COc1ccc(C2Nc3ccccc3NC3=C2C(=O)CC(c2ccccc2)C3)cc1Br (stereo unspecified)	.	.	106	-3
CC(C)N(C(=O)CNCc1cccs1)C(C)C	87	95	105	-4
CCc1ccc(N2CCn3c2nc2c3c(=O)n(C/C=C/c3ccccc3)c(=O)n2C)cc1	107	93	105	.
CCc1ccc2c(CC(=O)N(C)Cc3ccccc3OC)coc2c1	80	88	.	-20
O=C(COC(=O)c1ccc(OC(F)(F)F)cc1)NCc1ccccc1	93	91	.	-16

4 entries from above, with each value named.
O=S(=O)(c1cccs1)N1CCCCCC1
  Sa growth 42C = 107
  Sa growth 42C second temp = 93
  GIV-Gai inh = 107
  HCMV UL50-53 inh = .

Cc1oc(-c2ccccc2)nc1CSc1nc2ccccc2n2c(C)nnc12
  Sa growth 42C = .
  Sa growth 42C second temp = .
  GIV-Gai inh = 112
  HCMV UL50-53 inh = -13

CC(=O)N[C@@H](Cc1c[nH]c2ccccc12)C(=O)NCc1ccccc1
  Sa growth 42C = 80
  Sa growth 42C second temp = 96
  GIV-Gai inh = .
  HCMV UL50-53 inh = -14

COc1ccc(C2Nc3ccccc3NC3=C2C(=O)CC(c2ccccc2)C3)cc1Br (stereo unspecified)
  Sa growth 42C = .
  Sa growth 42C second temp = .
  GIV-Gai inh = 106
  HCMV UL50-53 inh = -3

Carrying on.
SMILES	Sa growth 42C	Sa growth 42C second temp	GIV-Gai inh	HCMV UL50-53 inh
CCCOc1ccc(-c2nc(N3CCC(C)CC3)c3ccccc3n2)cc1	96	96	106&100	-14&13
CC1CCCN(C(=O)c2ccc3c(c2)C(=O)N(CCC2=CCCCC2)C3=O)C1 (stereo unspecified)	114	97	104	-4
CC1Oc2ccc(S(=O)(=O)N3CCN(C(=O)Nc4cccc(Cl)c4)CC3)cc2NC1=O (stereo unspecified)	.	.	108	-18
CCN1C(=O)NC(c2ccc(Cl)cc2)C(C(=O)OCCOc2ccccc2)=C1C (stereo unspecified)	.	.	100	-8
FC(F)Oc1ccc(Cl)c2ccccc12	100	92	.	-8
CC1CC(C)CN(CCCNC(=O)c2cccc3c2SCCC3=O)C1 (stereo unspecified)	102	85	106	.
O=C(CN1C(=O)CCc2cc(S(=O)(=O)N3CCOCC3)ccc21)Nc1cccc(Cl)c1	95	79	101	.
COC(=O)c1ccc2c(=O)[nH]c(COC(=O)c3c(-c4ccccc4)noc3C)nc2c1	101	101	.	-29
CC(C)N(Cc1nnc(-c2ccc(Cl)cc2)o1)C(=O)/C=C/c1ccc(F)cc1	96	60	.	0
CC(N)C1CC2CCC1C2 (stereo unspecified)	88	91	.	-5
C=CCNc1nc(C(=O)OCCCn2c(=O)[nH]c3ccccc32)cs1	115	95	.	1
CCn1ccc2cc(S(=O)(=O)N3CCCN(C(=O)Nc4ccc(C)cc4)CC3)ccc21	76	87	98	.
O=C(CN(C1=NC2CS(=O)(=O)CC2S1)c1ccc(F)cc1)Nc1ccccc1C(F)(F)F (stereo unspecified)	94	85	100	.
CCCCN(C)c1nc(CC)c2c(c1C#N)CC(C)(C)OC2	76	96	115	.
CCc1ccccc1NC(=O)C(C)n1nc(-c2ccccc2)c2c(c1=O)CCCC2 (stereo unspecified)	.	.	104	-3
Nc1c(C(=O)NC2CCCCC2)nsc1C(=O)OCC(=O)NC1CCCCC1	91	83	101	7
Cc1ccc(OCC(=O)N(Cc2ccc(Cl)cc2)CC2CCCO2)cc1C (stereo unspecified)	106	84	99	-26
O=C(C1CCCC1)N1CC(OCc2cccc(F)c2)C1	.	.	108	-1
Cc1cc(C)c2oc(C(=O)Nc3cccnc3)cc(=O)c2c1	.	.	97	-18
Cc1ccc(CNC(=O)CSc2nc(NCCc3ccccc3)c3ccccc3n2)cc1	104	79	101	.
COc1ccc(CCNC(=O)Cn2c(-c3ccc(F)cc3)cc(C(C)=O)c2C)cc1OC	113	93	101	.
O=C(NCCCN1CCOCC1)C1CCC(=O)N1C1CCCCC1 (stereo unspecified)	94	93	97	-6
Cc1oc(-c2ccccc2)nc1Cn1nc(C)c2c(C)onc2c1=O	.	.	111	-37
CCOC(=O)C1C(c2ccccc2)NC(=O)NC1(O)C(F)(F)F (stereo unspecified)	85	82	102	-31
CN1C(=O)C(O)(C2OC(C)(C)CCC2=O)c2ccccc21 (stereo unspecified)	107	78	99	-21
